Bioassay records: PubChem, ICCB-Longwood Screening Facility, Harvard Medical School
Polio RdRp inh = poliovirus RNA polymerase inhibition. P03300. poliovirus polymerase elongation, fluorescence polarization; stronger effect = lower value. % elongation, % (compound at 16.7 µg/mL). hit rate 0.66% among 150,000. AID 588519; in the data active = % elongation below about 90%; note: some results filed as inactive read as strong as hits
Target sequence (P03300 1749-2209 limits assumed): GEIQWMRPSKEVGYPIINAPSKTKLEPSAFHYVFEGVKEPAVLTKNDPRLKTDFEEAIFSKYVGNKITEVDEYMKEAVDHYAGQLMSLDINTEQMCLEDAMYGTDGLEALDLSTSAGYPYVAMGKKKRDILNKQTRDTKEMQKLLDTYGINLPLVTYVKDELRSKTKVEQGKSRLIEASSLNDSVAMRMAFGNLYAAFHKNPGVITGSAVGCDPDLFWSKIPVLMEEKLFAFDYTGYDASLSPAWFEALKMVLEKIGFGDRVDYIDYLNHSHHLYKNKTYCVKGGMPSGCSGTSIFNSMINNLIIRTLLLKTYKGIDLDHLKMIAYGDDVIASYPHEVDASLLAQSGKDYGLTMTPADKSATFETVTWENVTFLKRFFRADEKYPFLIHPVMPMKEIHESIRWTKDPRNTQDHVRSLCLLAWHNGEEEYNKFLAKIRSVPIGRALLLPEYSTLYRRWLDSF
Polio RdRp inh intensity = also measured in Polio RdRp inh; calls as there; % elongation; measured here: total intensity read-out; formula for this scale not given here;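 total fluorescence in place of polarization; lower means less elongation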
Numbers without * were called inactive.

SMILES | Polio RdRp inh | Polio RdRp inh intensity
CCc1ccc(CNC(=O)C(C)n2ccc3cc(S(=O)(=O)N4CCCCCC4)ccc32)cc1 (stereo not given) | 107 | 113
N#Cc1ccc(C(=O)Nc2cc3nn(-c4ccccc4)nc3cc2Cl)c(F)c1 | 107 | 108
O=C(COc1cccc(Cl)c1)N1CCN(CCc2ccncc2)CC1 | 105 | 101
Cn1cnc(S(=O)(=O)N2CCC(C(=O)NCc3ccc(F)cc3)CC2)c1 | 105 | 107
COc1ccc(C2(CNC(=O)C(=O)Nc3ccc(C)c(Cl)c3)CCCC2)cc1OC | 108 | 110
O=S(=O)(c1ccc(Br)cc1)N1CCn2cccc2C1c1ccc(Br)cc1 (stereo not given) | 106 | 109
Cc1cccc(CNC(=O)Cn2ccc3cc(S(=O)(=O)N4CCCC4)ccc32)c1 | 106 | 105
COc1ccc(-c2noc(C(C)NC(=O)c3ccco3)n2)cc1 (stereo not given) | 101 | 97
Cn1cc(S(=O)(=O)c2ccc(Cl)cc2)c(=O)c2cc(F)c(N3CCOCC3)cc21 | 104 | 110
COc1cc(C(CC(=O)Nc2cc(C)ccc2C)N2Cc3ccccc3C2=O)cc(OC)c1OC (stereo not given) | 106 | 99
Cc1c(Cl)cccc1NC(c1ccc(F)cc1)c1nnc(-c2ccccc2)o1 (stereo not given) | 112 | 114
Cc1ccc(NC(=O)CN(c2ccc(C)cc2)S(=O)(=O)c2cccc3nonc23)cc1 | 107 | 109
CCOc1ccc(NC(=O)Cn2c(=O)n(Cc3ccco3)c(=O)c3ccc(C(=O)NC4CCCC4)cc32)cc1 | 106 | 109
Cc1ccc(-n2nc3c(=O)n(CC(=O)NCc4ccco4)nc(C)c3c2C)cc1 | 111 | 111
CC1CCc2c(sc(NC(=O)Cn3nnc(-c4ccc(C(F)(F)F)cc4)n3)c2C#N)C1 (stereo not given) | 105 | 107
CCn1c2ccccc2c2cc(NC(=O)COc3cc(C)ccc3C)ccc21 | 108 | 107
COc1ccc(C(=O)c2sc3nc(-c4ccc(C)cc4)cc(C(F)(F)F)c3c2N)cc1 | 106 | 113
COc1cccc(C(=O)Nc2cccc(C(=O)OCc3cc(=O)n4c(C)csc4n3)c2)c1 | 114 | 108
Cc1ccc2c(=O)cc(C(=O)Nc3ccc(S(=O)(=O)Nc4onc(C)c4C)cc3)oc2c1C | 99 | 101
Cc1cccc(NS(=O)(=O)c2ccc3[nH]c4c(c3c2)CCCCCC4)c1 | 110 | 116
Cc1ccc(CCNC(=O)CCCn2c(=O)c3ccccc3n(Cc3ccccc3C)c2=O)cc1 | 111 | 111
CCc1cc2c(cc3c(=O)n(CC(=O)NC4CCC(C)CC4)ncn32)s1 (stereo not given) | 107 | 109
O=C(Cn1c(=O)oc2cc(S(=O)(=O)N3CCCCC3)ccc21)NCc1ccc(Cl)cc1 | 105 | 109
Cc1ccc(C)n1-c1c(C(=O)NCCCN2CCN(c3ccc(F)cc3)CC2)sc2ncccc12 | 107 | 113
COc1cccc(NC(=O)c2sc3nc(C)c(C(=O)Nc4ccc(C)cc4C)c(-c4ccccc4Cl)c3c2N)c1 | 104 | 104

Entries shown so far containing a Cl atom, in the order listed:
SMILES | Polio RdRp inh | Polio RdRp inh intensity
N#Cc1ccc(C(=O)Nc2cc3nn(-c4ccccc4)nc3cc2Cl)c(F)c1 | 107 | 108
O=C(COc1cccc(Cl)c1)N1CCN(CCc2ccncc2)CC1 | 105 | 101
COc1ccc(C2(CNC(=O)C(=O)Nc3ccc(C)c(Cl)c3)CCCC2)cc1OC | 108 | 110
Cn1cc(S(=O)(=O)c2ccc(Cl)cc2)c(=O)c2cc(F)c(N3CCOCC3)cc21 | 104 | 110
Cc1c(Cl)cccc1NC(c1ccc(F)cc1)c1nnc(-c2ccccc2)o1 (stereo not given) | 112 | 114
O=C(Cn1c(=O)oc2cc(S(=O)(=O)N3CCCCC3)ccc21)NCc1ccc(Cl)cc1 | 105 | 109
COc1cccc(NC(=O)c2sc3nc(C)c(C(=O)Nc4ccc(C)cc4C)c(-c4ccccc4Cl)c3c2N)c1 | 104 | 104

(list continues)
SMILES | Polio RdRp inh | Polio RdRp inh intensity
O=c1[nH]c(=O)n(C2CCCCC2)c(O)c1C1=Nc2ccccc2SC(c2ccc(Cl)cc2)C1 (stereo not given) | 110 | 112
Cc1nn(-c2ccc(F)cc2)c(-n2cccc2)c1C(=O)N1CCN(c2ccc(F)cc2)CC1 | 107 | 107
Clc1ccc(OCc2nc3ccccc3n2Cc2ccccc2)c(Cl)c1 | 109 | 112
COc1ccc(C(=O)Nc2ccc3nc(SCC(=O)N(C)c4ccccc4)sc3c2)cc1 | 115 | 110
Cc1cccc(Cc2c(C)nc3nc(SCc4cccc(F)c4)nn3c2C)c1 | 104 | 107
Cc1oc(-c2ccccc2Cl)nc1CN1C(=O)CN=C(c2ccccc2)c2cc(Cl)ccc21 | 109 | 106
CCOC(=O)N1CCc2c(sc3c2c(=O)n(Cc2ccccc2)c(=O)n3CC(=O)Nc2ccc(C)c(C)c2)C1 | 108 | 112
CCc1nn(Cc2cc(C)ccc2C)c(=O)c2cc3cc(C)ccc3n12 | 106 | 108
Cc1ccc(-n2ncc(C(=O)NCCN3CCOCC3)c2C2CCN(C(=O)OC(C)(C)C)CC2)c(C)c1 | 105 | 106
Cc1cn2c(=O)c(S(=O)(=O)N3CCN(c4cc(Cl)ccc4C)CC3)c(C)nc2s1 | 112 | 118
O=C(c1ccccc1)N1c2nc(-c3ccco3)nn2C2(CCCCC2)[C@@H]2CCCC[C@@H]21 | 104 | 110
Cn1nnnc1SCCCNCc1cc(Cl)ccc1OCc1ccccc1 | 109 | 102
O=S(=O)(Nc1cccc(-c2ccc(N3CCCCCC3)nn2)c1)c1ccccc1F | 104 | 106
Cc1ccccc1S(=O)Cc1ccc(C(=O)NC2CCCCCC2)o1 (stereo not given) | 102 | 103
COc1c(C)cccc1C(=O)Nc1ccc(-c2nc3ccccc3s2)c(Cl)c1 | 100 | 102
Cc1ccc2nc(N(CCCN(C)C)C(=O)c3ccc(Br)s3)sc2c1 | 97 | 102
COc1ccc(NC2=C(c3ccc(C(F)(F)F)cc3)C(=O)c3ccccc32)cc1 | 103 | 107
Cc1ccc(NC(=O)C2CCCN(S(=O)(=O)c3ccc(C)cc3)C2)cc1 (stereo not given) | 109 | 106
COc1cccc(Cn2c(SCC(=O)N3CCN(c4ccc(F)cc4)CC3)nc3ccccc32)c1 | 109 | 112
Cc1cc(C)c2oc(C(=O)Nc3ccc(S(=O)(=O)N(C)c4ccccc4)cc3)cc(=O)c2c1 | 109 | 117
CCOC(=O)c1c(N)n(-c2ccc(OCC)cc2)c2nc3ccccc3nc12 | 107 | 108
COc1ccccc1-n1c(SCC(=O)Nc2ccc(C)cc2)nc(O)cc1=O | 96 | 122
CCN(CC)S(=O)(=O)c1ccc2c(c1)c(=O)c(C(=O)N(C)Cc1ccccc1)cn2C | 107 | 106
Cc1ccccc1CNC(=O)c1cc2cc(S(=O)(=O)N3CCCCC3)ccc2n1C | 107 | 107
COc1ccc(-c2cn3nc(N4CCC(C(=O)Nc5ccccc5OC)CC4)sc3n2)cc1 | 105 | 107

A run of entries from further up:
SMILES | Polio RdRp inh | Polio RdRp inh intensity
CCc1ccc(CNC(=O)C(C)n2ccc3cc(S(=O)(=O)N4CCCCCC4)ccc32)cc1 (stereo not given) | 107 | 113
N#Cc1ccc(C(=O)Nc2cc3nn(-c4ccccc4)nc3cc2Cl)c(F)c1 | 107 | 108

Additional results follow.
SMILES | Polio RdRp inh | Polio RdRp inh intensity
O=C(NCCn1ccc2ccccc21)c1ccc(Cl)cc1 | 102 | 105
Cc1cccc(C)c1NC(=O)CSc1nc2ncccc2o1 | 107 | 110
Cc1ccc(CCNC(=O)c2ccc(CNS(=O)(=O)c3ccc(C)cc3)cc2)cc1 | 103 | 103
Cn1nnc2c(N3CCN(c4cccc(Cl)c4)CC3)ncnc21 | 106 | 106
Cc1ccc(CNC(=O)c2ccc3c(c2)NC(=O)C(CS(=O)(=O)Cc2ccc(F)cc2)N3)cc1 (stereo not given) | 118 | 127
COc1ccc(CNC(=O)C(=O)Nc2c3c(nn2-c2ccccc2)CSC3)cc1 | 101 | 100
O=C(NCC12CC3CC(CC(C3)C1)C2)c1cc2nc(-c3ccc(F)cc3)cc(C(F)(F)F)n2n1 | 104 | 101
COc1ccccc1CNC(=O)CN1C(=O)CSc2ccc(S(=O)(=O)N3CCCCC3)cc21 | 108 | 110
COc1ccc(C(C(=O)Nc2ccc(C(C)C)cc2)N(C)C(=O)Cc2cccs2)cc1 (stereo not given) | 105 | 99
CCOC(=O)c1ccc(NC(=O)C2(S(=O)(=O)c3ccc(Cl)cc3)CC2)cc1 | 110 | 111
COc1ccc(CNC(=O)c2cc(-c3ccc(C)cc3)nc3n[nH]c(-c4ccc(Br)cc4)c23)cc1 | 105 | 105
CC(=O)Nc1nnc2n1CCS2 | 101 | 108
O=C(Nc1ccc(-c2nc3cc(NC(=O)c4ccc(F)cc4)ccc3o2)cc1)c1ccc(F)cc1 | 105 | 101
CCCc1ccc(OCC(=O)Nc2sc(C(=O)OCC)c(C)c2C(=O)OCC)cc1 | 102 | 108
CCOc1ccccc1NC(=O)CCc1c(C)nc2cc(-c3ccccc3)nn2c1C | 108 | 110
Cc1ccc2nc(/C(C#N)=C/c3ccc(-c4ccc(C(=O)OC(C)C)cc4)o3)[nH]c2c1 | 82 | 232
O=c1c(=O)n(Cc2c(F)cccc2Cl)ccn1Cc1ccccc1 | 104 | 112
CCOC(=O)c1ccc(NC(=O)c2sc3nc4n(c(=O)c3c2C)CCC4)cc1 | 101 | 101
CCOC(=O)Cn1c(=O)n(C2CCCCC2)c2nc(-c3cccc(F)c3)nc(C(N)=O)c21 | 106 | 110
CCn1cc2nc(SCc3cccc(F)c3)n(CCc3ccccc3)c(=O)c2n1 | 98 | 106
O=C(NCCc1ccccc1)c1cc(S(=O)(=O)N2CCCCC2)c[nH]1 | 102 | 106
Cc1cccc(CN2CCc3nc(N4CCN(c5ccccn5)CC4)ncc3C2)c1 | 97 | 103
Cn1c(=O)cc(SCC(=O)Nc2cccc(C#N)c2)c2ccc(Cl)cc21 | 104 | 104
Cc1ccc(C)c(Nc2nnc(-c3ccc(C)c(S(=O)(=O)N4CCN(C)CC4)c3)c3ccccc23)c1 | 105 | 109
Cc1cc(C)c(NS(=O)(=O)c2ccc3c(c2)CC(C)N3C(=O)C2CCC2)c(C)c1 (stereo not given) | 107 | 112

In the list so far, four contain a CF3 group:
SMILES | Polio RdRp inh | Polio RdRp inh intensity
CC1CCc2c(sc(NC(=O)Cn3nnc(-c4ccc(C(F)(F)F)cc4)n3)c2C#N)C1 (stereo not given) | 105 | 107
COc1ccc(C(=O)c2sc3nc(-c4ccc(C)cc4)cc(C(F)(F)F)c3c2N)cc1 | 106 | 113
COc1ccc(NC2=C(c3ccc(C(F)(F)F)cc3)C(=O)c3ccccc32)cc1 | 103 | 107
O=C(NCC12CC3CC(CC(C3)C1)C2)c1cc2nc(-c3ccc(F)cc3)cc(C(F)(F)F)n2n1 | 104 | 101

The list goes on:
SMILES | Polio RdRp inh | Polio RdRp inh intensity
CC1CN(C(=O)Nc2ccc(C(=O)NCCc3ccccc3Cl)cc2)c2ccccc2S1 (stereo not given) | 110 | 105
COC(=O)CN1C(=O)CSc2ccc(S(=O)(=O)Nc3cccc(C)c3C)cc21 | 104 | 105
CC1CCN(S(=O)(=O)c2ccc3c(c2)N(CC(=O)NCCc2ccc(Cl)cc2)C(=O)CO3)CC1 | 101 | 100
CCN1c2ccccc2-n2cccc2C12CCN(C(=O)Nc1ccccc1Br)CC2 | 105 | 107
CCCN(CCC)C(=O)Cn1c(=O)n(-c2ccc(OC)cc2)c(=O)c2ccc(C(=O)NCc3ccc(C)cc3)cc21 | 103 | 105
Cc1ccc2nc(-c3cccc(Cl)c3)c(Nc3ccc4c(c3)OCO4)n2c1 | 109 | 111
O=C(NCc1ccccc1)C1CCN(C(=O)c2cnn(-c3ccccc3)c2-n2cccc2)CC1 | 112 | 108
CCc1ccc(CNC(=O)C2CCN(C(=O)N3CC(CC)Oc4ccc(C)cc43)CC2)cc1 (stereo not given) | 107 | 104
CC(=O)N1CCCc2cc(S(=O)(=O)NCc3ccc(N(C)C)cc3)ccc21 | 110 | 113
O=C(CSc1nnc(COc2ccc(Cl)cc2)o1)Nc1ccccc1 | 101 | 105
Oc1c(C(c2ccccc2)N2CCN(c3cccc(Cl)c3)CC2)sc2nc(-c3ccco3)nn12 (stereo not given) | 104 | 106
O=C(Cn1cc(C(=O)c2cccs2)c2ccccc21)Nc1ccc(Br)cc1 | 103 | 104
Cc1cccc(C)c1OCc1nc2c3cnn(-c4ccccc4Br)c3ncn2n1 | 111 | 106
O=C(COc1ccccc1Cl)Nc1ccc2nc(SCC(=O)N3CCCC3)sc2c1 | 103 | 108
CCCCCn1c(=O)[nH]c2cc(C(=O)Nc3ccc(F)cc3)ccc2c1=O | 107 | 110
Cc1ccc2c(=O)cc(C(=O)Nc3ccc(S(=O)(=O)N4CCCCCC4)cc3)oc2c1 | 106 | 100
COc1ccc(S(=O)(=O)NCCc2sc3nc(-c4ccc(C)cc4)nn3c2C)cc1F | 115 | 111
CCOc1ccccc1CNC(=O)Cn1c(-c2ccccc2)cc(C(C)=O)c1C | 107 | 112
CC1CCCCN1CCCNC(=O)Cn1ncc2c3ccccc3n(Cc3ccccc3)c2c1=O (stereo not given) | 110 | 111
CCCOc1ccc(C2C(=O)N(C3CCCCCC3)CC(=O)N2CCC2=CCCCC2)cc1OC (stereo not given) | 102 | 97
Fc1ccc(-n2ncc3c(NC4CCCCCC4)ncnc32)cc1 | 111 | 109
COc1ccc2c(c1)c1c(c(=O)n(CCc3ccccc3)c(=O)n1Cc1cccc(C)c1)n2C | 102 | 107

These rows are one share of the data; count on the stated rates, not on these rows.
